# Vif A3G: inhibitors of Vif binding to APOBEC3G peptide, primary screen, biochemical, TR-FRET, GST-Vif 1-94, biotin-A3G peptide, dose response retest (AID 1117319); TR-FRET GST-Vif / biotin-A3G peptide binding; higher % means a stronger effect; test concentration not given here; strong numbers were not always called active; inhibition, %; hits with a dose series show IC50 in µM; 260,000 compounds, 0.57% hits;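 active means above the screen mean plus three standard deviations and confirmed in dose response; inconclusive means results disagree or hit not tested in dose response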;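 further: Vif residues 1-94 fused to GST binding biotinylated APOBEC3G peptide 110-148; 0% = full assay without inhibitor and 100% = GST in place of GST-Vif; retest series ran down from 100 µM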
# Bfl-1 A1 inh: inhibitors of the anti-apoptotic protein A1, read as caspase activation. 330,000 compounds, 0.066% hits. caspase activation, % (no concentration beside the values). MEF A1-2A-BIM cells, Caspase-Glo 3/7 luminescence, 3 h; percent of clofoctol response, vehicle zero;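 active means over half of replicate activation scores above 10%, or exactly half above 10 with the replicate mean above 10; inconclusive means replicate mean below 10 yet half the replicates above 10; inactive means over half of replicates below 10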;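 further: wells of about 30 µL received 50 nL stock; many hits fall short of the cut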
# Beta cell apopt: blocks beta cell apoptosis | INS-1E cytokine-induced death, ATP luminescence, 48 h; percent of positive-control rescue, neutral wells zero | protection from apoptosis, % (no concentration beside the values) | 300,000 compounds, 0.8% hits;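 active means all replicates at 75% or more, or half of them and the mean; inconclusive means half reach 75% but not the mean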;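 further: 0% = cytokine-treated negative control wells and 100% = positive control rescue; higher means more ATP so stronger rescue from cytokine killing; wells of about 40 µL received 100 nL stock; the first replicate is given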
# Ecoli rRNA inh: selective bacterial rRNA inhibition in E. coli. E. coli WT GFP vs humanized-ribosome RFP mutants, fluorescence, 24 h; hits give low values; DMSO median 0, no signal -100. GFP signal change (wild-type ribosome), % (test concentration not listed). 350,000 compounds, 1.6% hits;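 active means significant combined selectivity score with lowered wild-type GFP, culture density cut under 30%, mutant RFP and density less affected; inactive means any of these conditions unmet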; further: one replicate is shown; some compounds called inactive have numbers as strong as hits
# T cruzi inh: T. cruzi replication inhibition; T. cruzi beta-gal in NIH3T3, luminescence, 90 h; inhibition, % (no concentration beside the values); 300,000 compounds, 1.4% hits; AID 1885;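 active means mean inhibition across valid replicates above about 55%, limit read from the data; inconclusive means mean below that limit but half or more replicates reach it; inactive means mean below it, under half of replicates reach it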;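 further: signal also drops with host cell toxicity which is not excluded here; 0% = plate median of DMSO wells and 100% = zero luminescence signal; higher percent means less beta-gal luminescence so fewer parasites; stock transfer was 50 nL into about 50 µL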
# MLL AF4-AF9 inh: MLL-AF4/AF9 protein interaction inhibition. P42568. AlphaScreen, biotin-AF4 peptide binding to FLAG-AF9. inhibition, % at 10 µM. 350,000 compounds, 0.47% hits;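 active means every replicate reaching a set inhibition limit, whatever the replicate mean, cut at about 25% in these data; inconclusive means mean inhibition reaches that limit but some replicates miss it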;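 further: 0% = plate neutral control median and 100% = total signal loss; the record names both 10 and 1 µM as test concentration; the first replicate is given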
# Target sequence (P42568 whole entry, looked up): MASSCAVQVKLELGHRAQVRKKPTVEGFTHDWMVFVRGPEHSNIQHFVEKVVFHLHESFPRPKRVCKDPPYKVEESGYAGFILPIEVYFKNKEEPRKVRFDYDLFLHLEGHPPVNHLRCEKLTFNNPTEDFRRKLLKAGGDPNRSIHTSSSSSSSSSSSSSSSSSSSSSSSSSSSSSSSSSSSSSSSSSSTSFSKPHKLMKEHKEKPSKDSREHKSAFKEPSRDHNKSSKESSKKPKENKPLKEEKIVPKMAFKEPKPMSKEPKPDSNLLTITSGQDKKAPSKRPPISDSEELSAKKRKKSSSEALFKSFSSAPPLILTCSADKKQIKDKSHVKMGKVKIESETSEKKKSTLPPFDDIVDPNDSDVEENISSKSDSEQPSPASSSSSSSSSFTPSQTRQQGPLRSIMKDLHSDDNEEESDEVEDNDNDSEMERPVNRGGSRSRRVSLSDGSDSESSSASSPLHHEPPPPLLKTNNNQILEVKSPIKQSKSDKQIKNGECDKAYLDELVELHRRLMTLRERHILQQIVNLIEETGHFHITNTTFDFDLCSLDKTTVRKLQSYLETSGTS
# RanGTP-Impb inh: disruptors of Ran-importin-beta complex formation – biochemical, FRET, CFP-Ran, YFP-importin-beta, homogeneous, primary screen | cell-free CFP-Ran/YFP-importin-beta FRET ratio | inhibition, % (test concentration not listed) | 300,000 compounds, 1.1% hits | AID 2216;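 active means most replicates above 15%; inconclusive means exactly half above 15%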;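 further: 0% = DMSO wells and 100% = Ran loaded with GDP instead of GTP; wells of about 40 µL received 100 nL stock; the first replicate is given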
# Calb FLC: C. albicans growth modulation with fluconazole; 300,000 compounds, 0.57% hits; AID 1979; growth inhibition, % (no concentration beside the values); C. albicans CaCi-2 (fluconazole-resistant clinical isolate) + fluconazole, Alamar Blue growth, 48 h;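 active means most replicates above 75%; inconclusive means exactly half above 75%; inactive means most below 75%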;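 further: all wells also contain fluconazole at 8 µg/ml as a sub-toxic cotreatment; 0% = median of DMSO wells and 100% = median of geldanamycin control wells; wells of about 8 µL received 7.5 nL stock; the first replicate is given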
# Ecoli rRNA inh OD600: also measured in Ecoli rRNA inh; calls as there; OD600 change, %; measured here: OD600 growth;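 optical density of the mix in the first replicate; 0 = DMSO median and -100 = no signal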
# Ecoli rRNA inh RFP: second read-out of Ecoli rRNA inh, no call of its own (marks repeat the call); RFP signal change, %; measured here: RFP humanized mutant strains;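 first replicate; 0 = DMSO median and -100 = no signal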
# Numbers without * were called inactive; u = inconclusive; x = not tested or not shown.
mol	Vif A3G	Bfl-1 A1 inh	Beta cell apopt	Ecoli rRNA inh	Ecoli rRNA inh OD600	Ecoli rRNA inh RFP	T cruzi inh	MLL AF4-AF9 inh	RanGTP-Impb inh	Calb FLC
CCCn1c(/N=C/c2ccc3c(c2)OCO3)nc2ccccc21	5%	0.5	-3	x	x	x	-8	x	2.2	35
O=c1c2ccccc2nc(CSc2nnnn2-c2ccccc2)n1-c1ccccc1	-2%	0.2	3	x	x	x	15	x	-0.2	-7
COc1ccc(Cn2c(=O)c3c(nc(NCCO)n3C)n(C)c2=O)cc1	16%	0.3	-5	x	x	x	x	x	-1.8	-1
COc1ccc(S(=O)(=O)N2CCOCC2)cc1C(=O)Nc1ccc2c(c1)OCO2	x	0.8	-5	9	10	-0.4	0	3.5	1.5	-1
O=C1CN(c2nc3nonc3nc2N2CCCCC2)CCN1	5%	1.7	-4	5	9	2.0	-2	-4.7	-5.0	1
S=c1[nH]nc(COc2ccc3ccccc3c2)o1	-5%	-1.1	0	x	x	x	-8	x	2.7	7
NS(=O)(=O)c1ccc(Cl)c(C(=O)Nc2ccccc2[N+](=O)[O-])c1	x	-1.1	-9	5	5	-2.1	6	-1.0	-2.2	2
COc1cccc(C(=O)Nc2sc(C(C)C)cc2C(N)=O)c1OC	0%	-0.1	3	-24	-20	-4.0	10	0.8	3.9	7
CC(C)Cn1c(N)c(C(=O)CSc2ncccn2)c(=O)n(C)c1=O	-5%	0.2	2	4	15	0.5	11	7.8	0.5	-5
Cc1cc(C(=O)N/N=C/c2c[nH]c3ccccc23)c(C)o1	-6%	0.1	-8	0	-1	-8.6	-11	-31	-4.3	-4
C/C(=N/O)c1ccc(Oc2cnccn2)cc1	-3%	-1.3	-3	13	12	1.1	-16	-1.0	-1.6	22
CCSc1nnc(-c2ccncc2)n1Cc1ccccc1	-1%	-0.3	-4	x	x	x	-3	x	-3.8	-7
N=C1C(c2ccccc2)=C(O)CN1c1cccc2ccccc12	u	-0.2	-4	-6	-2	-9.4	-5	u	0.8	8
Cc1ccc(CNC(=O)c2sc3nc4c(c(C(F)(F)F)c3c2N)CCC4)cc1	1%	-0.3	-4	x	x	x	32	x	4.0	-5
COc1cc(OC)cc(C(=O)NCC(=O)OC(C)C(=O)NC(C)C2CC3CCC2C3)c1 (stereo unspecified)	-3%	-0.4	8	-16	-16	13	x	3.2	x	x
COc1ccc(CC(=O)Nc2sc3c(c2C#N)CC(C)(C)NC3(C)C)cc1OC	x	-0.5	5	9	6	-0.2	-5	0.3	-2.6	0
Cc1ccc(NC(=O)CN2CCC(NC(=O)c3ccccc3F)CC2)cc1C	-1%	1.0	1	-3	-3	-2.2	0	0.7	3.4	-15
Cc1cc(C)c(NC(=S)NC(=O)c2c(Cl)c(C)nn2C)c([N+](=O)[O-])c1	x	-0.7	-2	x	x	x	-5	x	-0.8	-5
CC(=O)CCc1c(C)nc2ccc(C)cc2c1Cl	3%	0.1	0	-22	-5	35	-4	-1.4	1.3	-22
COC(=O)c1ccc(CN2CCCC(CNC(=O)Cc3ccc(OC)cc3)C2)cc1 (stereo unspecified)	x	-0.6	x	5	10	-0.4	40	2.0	8.9	2
CCCCn1c(CCCNC(=O)CC)nc2ccccc21	0%	0.7	2	3	9	-4.1	7	-3.9	-3.5	-1
Cc1nn(Cc2ccccc2)c(C)c1/C=N/NC(=O)c1ccccc1O	71%	0.0	0	5	-1	-2.3	8	-8.5	u	-12
Cc1ccccc1NC(=O)C1CCC(=O)N1 (stereo unspecified)	x	-0.6	1	9	15	0.6	-9	-21	0.6	-10
COc1ccc(C2CC(C(F)(F)F)n3ncc(C(=O)NCC4CCCO4)c3N2)cc1OC (stereo unspecified)	-3%	0.2	-7	x	x	x	1	x	1.5	-6
Cc1ccc(NC(=O)Cc2ncon2)cc1Cl	8%	1.1	-4	-2	-15	-5.7	-15	x	-3.0	-2
Cc1onc(-c2ccccc2)c1C(=O)c1c[nH]c(C(=O)NCCCN2CCOCC2)c1	-3%	0.0	0	-1	3	-1.2	-12	3.2	1.3	-3
Cc1ccc([C@@H]2CC=C(C(=O)O)[C@H](c3cccc(F)c3)N2S(=O)(=O)c2ccccc2C)cc1	1%	0.1	-4	x	x	x	x	-1.7	x	x
Cc1ccc(S(=O)(=O)CCSc2nccn2C)cc1	5%	-0.1	-3	22	0	2.6	-14	0.9	u	-10
O=C(Nc1ncc(S(=O)(=O)c2ccc([N+](=O)[O-])cc2)s1)c1cccnc1	8%	0.3	-2	13	6	-0.8	10	-0.7	-3.5	1
Cc1ccsc1/C=N/NC(=O)c1nnn(-c2nonc2N)c1-c1ccccc1	1%	-0.4	-1	-14	-17	5.5	5	-11	2.2	-1
O=C(NC1CC1)C(=O)c1c[nH]c2ccccc12	-5%	-0.2	-3	7	12	2.1	-6	-0.1	x	x
Cc1cccc(COc2ccccc2C(=O)OCC(=O)N(C)c2c(N)n(Cc3ccccc3)c(=O)[nH]c2=O)c1	-3%	0.5	x	-24	-24	-3.2	12	-2.1	1.7	3
CCOC(=O)C1CCCN(CC(=O)Nc2c(F)c(F)c(F)c(F)c2F)C1 (stereo unspecified)	-4%	0.9	1	x	x	x	-5	x	u	-4
Cn1c(=O)c2c(nc(NCc3ccc4c(c3)OCO4)n2Cc2ccccc2)n(C)c1=O	1%	0.2	x	x	x	x	5	x	2.2	-10
O=C(N/C(=C\c1ccc(Br)cc1)C(=O)N1CCOCC1)c1ccc([N+](=O)[O-])cc1	x	0.4	5	-10	6	-0.3	4	7.5	2.4	13
COc1cc(OC)cc(OC(=O)c2ccc3c(=O)n4c(nc3c2)CCC4)c1	-1%	-1.1	-7	3	6	0.3	-16	4.1	8.2	3
COc1ccc([C@H]2CC(=O)C=C(c3ccc(Br)c4ccccc34)C2)cc1	x	-0.2	-2	5	-3	4.9	x	8.8	x	x
CC1CN(S(=O)(=O)c2ccc(NC(=O)c3ccco3)cc2)CC(C)O1 (stereo unspecified)	-2%	0.2	6	x	x	x	-5	x	-0.4	-3
Cc1ccc(S(=O)(=O)N(CC(=O)N2CCOCC2)CC(=O)N2CCOCC2)cc1	8%	-1.0	-5	x	x	x	-2	x	32*	5
CC(=O)NC(CC(=O)N(C)C1CCCCC1)c1ccccc1 (stereo unspecified)	x	0.7	-7	5	10	-1.3	-3	0.9	3.3	-12
CON1C(=O)C(=O)N(OC)C(C)(C)C1(C)C	x	-0.1	-2	15	14	0.2	5	-2.3	-6.9	-10
CN(Cc1ccncn1)C(=O)C1CCC(=O)N(Cc2cccc(C(F)(F)F)c2)C1 (stereo unspecified)	x	-0.2	2	8	9	0.1	1	-0.6	-0.8	3
COc1ccc(/C=N/Nc2ncnc3sc4c(c23)CCCC4)cc1OC	x	0.0	-7	x	x	x	9	x	1.0	3
CCC(C)(C)c1ccc(OCCCC[n+]2cccc(C)c2C)c(C(C)(C)CC)c1	4%	0.3	117*	x	x	x	10	22	1.2	109*
COc1cc(OC)cc(C(=O)NC(C)c2ccc(Br)cc2)c1 (stereo unspecified)	-13%	u	1	16	11	-0.1	-1	-1.0	3.4	-2
COCCCn1c(=O)c2ccccc2n(CC(=O)N2CCCc3ccccc32)c1=O	x	-0.1	5	2	4	-3.1	4	-0.8	-3.3	3
Cn1c(N)c(S(=O)(=O)NCc2ccc(F)cc2)c(=O)n(C)c1=O	x	0.6	2	9	12	1.0	-6	-15	1.3	1
Cc1cc(N/N=C(/CCC(=O)O)C(=O)O)nc2ccccc12	11%	u	0	-9	-9	-2.5	27	-3.1	2.8	13
CC(C)CCOP(=O)(c1ccccc1)c1ccccc1	x	0.1	1	x	x	x	2	x	0.4	9
CCN(CCCNC(=O)c1ccc2c(c1)NC(=O)CN2C)c1cccc(C)c1	x	-0.2	3	-43	-57	-3.5	u	2.2	21*	7
Brc1ccc(-c2ncc3ccccn23)cc1	10%	-1.2	2	8	-5	-4.5	34	-6.0	4.6	-2
COCCn1c(C)cc(C(=O)COc2nc3ccccc3nc2C)c1C	-1%	0.4	26	x	x	x	-9	x	-0.1	1
Cn1nc(C(=O)Nc2ccc3c(c2)OCO3)c2ccccc2c1=O	x	-0.5	-4	12	1	-3.1	6	-1.4	1.3	-3
O=C(NCC1CCCO1)Nc1cc(Cl)cc(Cl)c1 (stereo unspecified)	x	-0.8	-1	-35	-33	-2.1	-27	-2.9	x	x
CC(=O)c1c(C)[nH]c(C(=O)Nc2ccccn2)c1C	3%	-5.2	x	1	-1	-1.1	1	0.0	-0.5	0
CCN(CC)C(=O)NC(c1ccc(C)c(F)c1)C(Cl)(Cl)Cl (stereo unspecified)	-2%	-0.3	3	5	-1	-0.1	-3	-0.1	3.2	-12
O=C(/C=C/c1ccco1)Nc1nc(-c2ccccc2)cs1	0%	-1.4	4	19	13	11	-68	4.3	-1.4	-3
COc1ccccc1C(=O)NCC(=O)OCc1csc(-c2ccccc2)n1	11%	-1.2	5	x	x	x	-4	x	1.2	-28
Fc1cccc(Nc2nc(-c3ccncc3)nc3ccccc23)c1	x	-0.2	-3	17	6	4.3	37	-7.5	1.0	10
N#Cc1ccccc1NC(=O)CSc1ccc([N+](=O)[O-])cn1	-14%	-0.4	-3	6	1	-0.7	1	-0.6	u	8

# Next records:
mol	Vif A3G	Bfl-1 A1 inh	Beta cell apopt	Ecoli rRNA inh	Ecoli rRNA inh OD600	Ecoli rRNA inh RFP	T cruzi inh	MLL AF4-AF9 inh	RanGTP-Impb inh	Calb FLC
CCCN(CC1CC1)C(=O)COC(=O)c1ccc2c(c1)C(=O)N(c1ccc(OCC)cc1)C2=O	0%	0.0	0	12	20	7.5	-6	-2.1	-2.1	-8
Cc1ccc[n+](/C(=C\C(=C=[N-])C#N)C(=O)c2ccc(Cl)cc2)c1	4%	-0.3	2	6	15	0.8	-14	0.1	-0.5	-4
COc1cccc(NC(=S)N2CCC(N(C)CC3CCCO3)CC2)c1 (stereo unspecified)	x	-0.1	3	x	x	x	-1	x	2.8	-3
CCc1cc(=O)oc2c(CNCc3ccc(OC)cc3OC)c(O)c(Cl)cc12	0%	1.0	0	11	9	-2.9	-13	-0.5	34*	-2
COc1c(C)cc(Br)cc1C(=O)Nc1ccc(S(N)(=O)=O)cc1	-33%	-0.7	x	4	-1	-0.4	-19	-1.7	-1.0	-12
COc1ccccc1C(=O)NCC(=O)N1CCN(S(=O)(=O)c2ccccc2C(F)(F)F)CC1	-3%	1.0	-2	-4	6	-1.7	x	-1.7	x	x

# Assay outcomes (PubChem BioAssay)

# This is a subset; the hit share may differ from the screen's.
